PINK1 modulator: A Quantitative High throughput Screen to Identify Chemical Modulators of PINK1 Expression | PINK1 immunofluorescence, high-content cytometry, 24 h | Potency, µM (doses to about 76.6 µM), for inactives: at the top dose activation (PINK1 increase), hits mostly activators | 0.2% of 410,000 active | AID 624263, 2012; active = well fitted activation curve with a large enough effect; inconclusive = small, poorly fitted or top-dose-only effect; inactive = flat fitted curve, though single readings scatter; cell line not stated here;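 further: potency means the concentration at half of the fitted maximal effect; % of control where 0% means no effect; nearly all actives have a fitted effect of over 65% in size; a mitochondrial uncoupler was the plate control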
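PINK1 protein level read as immunofluorescence by microplate cytometer in a fixed, stained stable cell line after 24 h exposure to five compound concentrations, with CCCP as control.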
CtBP-E1A inh: qHTS Assay for Inhibitors of the CtBP/E1A Interaction; AlphaScreen GST-E1A/His-CtBP binding, 1536-well; hits give low values; control for the full effect not named in the record; 0.49% of 340,000 active; CtBP / adenovirus E1A interaction (AlphaScreen); activity change, % (test concentration not listed); in the data active means activity change below about -65%; inconclusive means about -30% to -65%; inactive means above about -30%; further: on the % scale 0 is the no-effect control and ±100 the full control effect; compound concentration not given in the record
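Protein mix (5X: 125 nM each GST-E1A, His-CtBP) was incubated with pinned compound 2 h at 37 deg C in dark, in 50 mM Tris pH 8.0 buffer with 300 mM NaCl. Glutathione donor and nickel acceptor beads followed; AlphaScreen signal read after 1 h.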
Sfp PPTase inh: qHTS Assay for Inhibitors of Bacillus subtilis Sfp phosphopantetheinyl transferase (PPTase) | 4'-phosphopantetheinyl transferase ffp (Bacillus subtilis), Q9F4F7 | Biochemical Sfp PPTase activity, qHTS | Potency, µM, for inactives: max response, negative = inhibition, actives largely listed as inhibitors | 3.5% of 310,000 active; active means well fitted inhibition curve with a large enough effect; inconclusive means small, poorly fitted or top-dose-only effect, or another doubt; inactive means no such curve, though single readings can be large or run the other way;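 further: the enzyme is Sfp with the accession as filed and its product quenches rhodamine fluorescence; potency means the concentration at half of the fitted maximal effect; 0% = enzyme reaction without inhibitor and -100% = no enzyme wells; top concentration of the series not given in the record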
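Fluorescence-quenching assay with 15 nM Sfp, 5 uM rhodamine-CoA and 12.5 uM BHQ-2-labelled ybbR peptide in pH 7.6 Hepes/MgCl2 buffer. Enzyme was pre-incubated with compound for 15 min at room temperature. Rate was taken from the 30-min fluorescence change (525/598 nm).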
D2 ag: Beta-Arrestin HTS for Positive Allosteric Modulators of the Human D2 Dopamine Receptor: Agonists | 0.084% of 360,000 active | activation, % (test concentration not listed) | D(2) dopamine receptor (Homo sapiens), P14416 | DiscoveRx PathHunter D2 beta-arrestin, luminescence, 90 min; 100% = 57 uM dopamine signal | AID 624465, 2012; in the data active = activation above about 40%; inconclusive = about 15% to 40%; inactive = below about 15%; further: compound concentration not given in the record; the text of the record calls up to 30% inactive
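Agonist mode: compounds alone added to overnight-plated D2 PathHunter cells for 90 min at 37 C, with 57 uM final dopamine (EC100) defining full response. Beta-arrestin recruitment detected by chemiluminescent reagent, read after 1 h at ambient temperature.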
D2 PAM: Beta-Arrestin HTS for Positive Allosteric Modulators of the Human D2 Dopamine Receptor: Potentiators; D(2) dopamine receptor (Homo sapiens), P14416; DiscoveRx D2 beta-arrestin cells, luminescence, 90 min; 100% = 57 uM dopamine signal; potentiation, % (test concentration not listed); 0.23% of 360,000 active; AID 624464, 2012; active = potentiation of 50% or more; inconclusive = 30% to 50%; inactive = 30% or less;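 further: compound concentration not given in the record; tested on top of an EC20 dose of dopamine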
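PathHunter beta-arrestin assay in DiscoveRx D2 cells. Compounds were added with an EC20 of dopamine (50 nM final) for 90 min at 37 deg C. Luminescence was read 1 h after detection reagent, with 57 uM dopamine as the EC100 control.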
TRPV1 potentiator: HTS Assay for Compounds that Act as Potentiators of the Vanilloid Receptor 1. 0.02% of 320,000 active. TRPV1-expressing cells, Fluo-8 calcium influx, capsaicin EC20 potentiation; host cell line not named in the record; control for the full effect not named in the record. potentiation, % at 8.33 µM. Transient receptor potential cation channel subfamily V member 1 (Homo sapiens), Q8NER1; active means potentiation above 80%; inconclusive means 30% to 80%; inactive means below 30%; further: 0% is about no effect
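Cells expressing TRPV1 were dye-loaded with Fluo-8 and read kinetically: 10 s baseline, 3 min after compound (agonist portion), then 2 min after EC20 capsaicin (allosteric enhancer portion). Calcium-bound dye fluorescence at 480/520 nm.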
Six1-Eya2 blk: qHTS Assay for Inhibitors of the Six1/Eya2 Interaction; AlphaScreen GST-Six1/His-Eya2 binding, biochemical; hits give low values; control for the full effect not named in the record; activity change, % (test concentration not listed); 0.56% of 360,000 active; AID 651725, 2012; in the data active = activity change below about -65%; inconclusive = about -30% to -65%; inactive = above about -30%; further: on the % scale 0 is the no-effect control and ±100 the full control effect; compound concentration not given in the record
Target sequence (O00167 whole entry, looked up): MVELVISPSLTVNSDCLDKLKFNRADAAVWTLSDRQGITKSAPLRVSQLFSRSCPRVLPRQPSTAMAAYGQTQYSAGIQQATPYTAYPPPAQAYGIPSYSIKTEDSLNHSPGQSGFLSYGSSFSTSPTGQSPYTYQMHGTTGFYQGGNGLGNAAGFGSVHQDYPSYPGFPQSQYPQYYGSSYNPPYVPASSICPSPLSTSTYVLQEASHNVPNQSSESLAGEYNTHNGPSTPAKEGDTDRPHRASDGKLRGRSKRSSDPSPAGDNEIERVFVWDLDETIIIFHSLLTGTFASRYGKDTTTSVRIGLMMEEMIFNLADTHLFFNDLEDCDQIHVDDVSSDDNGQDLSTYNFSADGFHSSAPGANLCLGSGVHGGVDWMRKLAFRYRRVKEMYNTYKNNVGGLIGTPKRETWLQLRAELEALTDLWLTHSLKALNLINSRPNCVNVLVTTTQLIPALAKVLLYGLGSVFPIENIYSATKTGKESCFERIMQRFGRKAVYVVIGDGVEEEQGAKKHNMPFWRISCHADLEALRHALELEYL
Target sequence (Q15475 whole entry, looked up): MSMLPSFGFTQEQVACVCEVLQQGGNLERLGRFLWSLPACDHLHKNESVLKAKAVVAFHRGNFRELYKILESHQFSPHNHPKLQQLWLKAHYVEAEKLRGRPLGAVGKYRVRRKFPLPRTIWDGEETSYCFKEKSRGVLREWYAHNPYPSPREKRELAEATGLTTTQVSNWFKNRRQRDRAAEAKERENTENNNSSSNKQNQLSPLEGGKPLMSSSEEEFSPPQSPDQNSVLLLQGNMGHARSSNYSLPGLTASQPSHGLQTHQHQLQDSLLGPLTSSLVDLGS
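GST-Six1 + His-Eya2 (5X stock: 250/500 nM); Tris pH 8.0, 300 mM NaCl, 0.05% BSA, 0.02% Tween 20; GSH donor/Ni acceptor beads; 1 h 37 °C dark; AlphaScreen readout.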
Starred values were filed as active, the others as inactive; ? = inconclusive; . = no result given; & = joins results of further samples; [ ] = another dose, or the depositor's remark.

molecule,PINK1 modulator,CtBP-E1A inh,Sfp PPTase inh,D2 ag,D2 PAM,TRPV1 potentiator,Six1-Eya2 blk
CCCC(=O)Nc1ccc(C(N)=O)cc1,0.4%,-2,-1%,-3.7,-3,-6,0
O=C(NCc1ccc(F)cc1)c1ccc(CNc2c(N3CCOCC3)c(=O)c2=O)cc1,3.7%,-6,6%,4.4,-1,0,-10
COc1cccc(N2CC(C(=O)Nc3nnc(SCC(=O)NCC4CCCO4)s3)CC2=O)c1 (stereo not given),0.9%,-1,?,-6.5,-7,-1,-18
CCC(C)[C@H](NC(=O)c1cc2cc(Cl)ccc2n1C)C(=O)N1CCC(C(=O)O)CC1 (stereo not given in full),2.0%,9,11%,-1.6,0,0,0
C#CC(=O)N(c1cccc(OC)c1)C(C(=O)NC1CCCC1)c1cccs1 (stereo not given),.,19,6%,-1.9,-21,8,1
CSCC[C@@H](C(=O)NCc1cccs1)N1Cc2ccccc2C1=O,4.2%,6,16%,-8.6,-12,18,-2
Nn1c(SCC(=O)Nc2ccc(N3CCOCC3)cc2)nnc1-c1ccccc1F,0.7%,-1,.,-2.9,-13,-8,3
O=C(CN1C2=NCCN2c2ccccc21)c1ccc(Br)s1,-1.2%,-7,3%,-6.1,-10,0,-1
CC1OC(Oc2ccc3ccc(=O)oc3c2-c2c(O)ccc3cc(Oc4ccc5ccc(=O)oc5c4)c(=O)oc23)C(O)C(O)C1O (stereo not given),1.8%,1,12%,-2.9,-34,5,-7
COc1cccc(C(=O)NC(=S)Nc2ccc(N3CCCC3)cc2)c1,17%,?,-4%,0.1,-8,-22,-68*
Cc1ccc(NC(=O)CCn2cccc2)cc1F,-5.9%,-6,18%,-3.1,-1,?,-13
CCS(=O)(=O)N1CCN(C(=O)COc2ccc(-c3ccccc3)cc2)CC1,0.2%,1,4%,1.3,6,-5,1
Cc1c(C(=O)N2CCOCC2)sc(NC(=O)c2ccccc2F)c1C#N,1.7%,-9,2%,0.0,2,-16,-4
O=C(NCCS(=O)(=O)N1CCN(c2ccccc2)CC1)c1ccc2c(c1)OCO2,0.3%,0,.,0.8,2,8,1
Cc1ccc(-c2noc(CSc3nnc(-c4ccncc4)n3-c3ccc(F)cc3)n2)cc1,-3.6%[38.3 µM],-3,-17%,0.6,-9,14,-2
O=C(Cn1cc2c(n1)CCCC2)NCCc1ccccc1,2.4%,4,7%,4.0,-3,3,6
COc1ccc(NC2CCCN(C(=O)CCCN3CCCCC3=O)C2)cc1 (stereo not given),-1.3%,2,11%,1.1,-3,9,1
CC1(C)OC(=O)C(C(c2ccccc2)C(C#N)C(N)=O)=C(O)O1 (stereo not given),2.5%,4,0%,-1.6,-7,0,6
CCOC(=O)N1CCN(C2=Nc3cccc4cccc2c34)CC1,.,3,-25%,-1.8,-10,-41,-3
COc1ccc(-c2cn[nH]c2-c2ccc(O)cc2O)cc1OC,1.7%,-2,11%,0.1,0,6,-4
CC(CCc1ccccc1)NC(=O)C1CCN(C(=O)c2sccc2-n2cccc2)CC1 (stereo not given),1.7%,-7,-7%,-0.9,4,.,0
COc1ccccc1CN1CCNC(=O)C1CC(=O)NCc1c(C)n[nH]c1C (stereo not given),0.6%,6,1%,-4.6,-9,-4,0
Cc1cc(=O)oc2cc(OC(C)C(=O)NCC3CCCO3)ccc12 (stereo not given),-1.3%,0,20%,-7.4,-4,-6,7
COC(=O)c1nc2n(n1)C(c1ccc(OC)c(OC)c1OC)C1=C(CCCC1=O)N2 (stereo not given),-0.2%,3,8%,-0.5,-17,0,0
CC(C)(C)c1ccc(NC(=O)c2cc[n+]([O-])cc2)cc1,1.3%,-13,7%,-5.1,-7,-14,-1
OC[C@H]1O[C@@H](n2cnc3c(NCc4ccco4)ncnc32)[C@H](O)[C@@H]1O,0.7%,0,7%&16%,-3.6,-4,.,0
O=C(O)c1c[nH]c2ccc(S(=O)(=O)N3CCOCC3)cc12,0.4%,1,16%,-1.2,7,3,3
O=C(CCN1C(=O)C2CCCCC2C1=O)N1CCN(S(=O)(=O)c2c(F)cccc2F)CC1 (stereo not given),0.5%,2,.,2.2,-6,0,-3
CCc1ccc([C@@H]2C[C@H]3CN(Cc4ccccc4OC)C(=O)[C@]34CCCN24)cc1,1.1%,2,9%,2.6,-7,1,-1
Cc1ccc(Cl)c(OC(=O)c2nn(C(C)C)c(=O)c3ccccc23)c1,?,5,-18%,3.2,1,8,-2
O=C(COC(=O)c1ccc(-c2ccc([N+](=O)[O-])cc2)o1)NC(=O)NC1CCCCC1,8.1%,-24,?,2.0,-3,-6,-24
Cn1c(=O)c2[nH]c(=S)n(Cc3ccccc3)c2n(C)c1=O,2.9%,-2,.,-7.7,-10,.,1
Cc1[nH]n(-c2ccc([N+](=O)[O-])cc2)c(=O)c1C=NCCc1ccc(S(N)(=O)=O)cc1,8.0%,2,-25%,-5.1,-1,7,-12
O=C(NCc1ccco1)C(=O)NCC1OCCN1S(=O)(=O)c1ccc(Cl)cc1 (stereo not given),0.9%,1,1%,5.1,-1,14,-3
COc1ccccc1/C=N/NC(=O)c1ccc(C)nc1,-0.6%,.,18%,2.9,-8,-2,8
CC(=O)Nc1c(-c2ccccc2)nc2ncccn12,1.4%,-2,8%,-0.7,-2,10,-3
N#CCCN(Cc1cccnc1)C(=O)Nc1ccc(Cl)c(Cl)c1,-0.6%,2,17%,0.3,-18,3,2
COc1ccc(-c2csc(N(CCCN(C)C)C(=O)c3ccccc3Cl)n2)cc1,-1.5%,?,.,4.2,-23,.,?
CCOC(=O)C(CC)(CC)C(=O)/C=C/c1ccc(Br)cc1,-2.8%,-10,6%,-7.6,-1,-10,6
Cc1cc(C)cc(OCC(=O)OCc2cc([N+](=O)[O-])cc3c2OCOC3)c1,1.3%,-16,.,0.0,1,.,-7
CCOC(=O)c1c(NC(=O)c2ccco2)n(C2CCCCC2)c2nc3ccccc3nc12,-0.7%[38.3 µM],-6,-17%,-7.0,-17,-5,-1
CCn1c(NC(=O)C2CCCCC2)nc2ccccc21,0.5%,3,1%,-0.8,-14,-17,6
COC(=O)[C@]12CCCCC=C1N(CCC1=CCCCC1)C(=O)[C@H](CC(=O)NCc1ccc(C)o1)C2,1.5%,-13,.,.,.,.,-15
CC1C2=C(CC(C)(C)CC2=O)NC2=C1C(=O)CC(C)(C)C2,2.4%,10,9%,-4.9,5,-16,3
Cc1[nH]c(=O)c(C#N)c(C)c1CCC(=O)N(C)CC(=O)Nc1ccc(Cl)c(Cl)c1,5.1%,4,20%,0.2,-5,1,2
Cc1occc1C(=O)NNC(=O)c1ccccc1C(=O)O,0.2%,3,2%,-1.2,-1,-45,5
C=CCN(CC=C)S(=O)(=O)c1ccc(F)cc1,-1.1%[38.3 µM],10,11%,-1.3,11,9,11
COc1ccc(Cl)cc1-c1nc(N)nc(NC2CCCCC2)n1,7.0%,-3,11%,-5.3,-9,8,-2
COC(=O)c1ccccc1N=Nc1c(C)[nH][nH]c1=O,-0.9%,-11,4%,-2.2,2,-6,-16
CCCCNC(=O)c1onc(CSc2cc(C)cc(C)c2)c1C(=O)NCCCC,1.5%,22,.,-1.2,-9,.,23
COc1cc(C(=O)O)nc(OC)n1,0.7%,0,-27%,-0.8,-2,6,6
Cc1ccc2nccc(C(=O)N3CCCC(Nc4ccc(F)cc4)C3)c2c1 (stereo not given),0.4%,2,5%,-5.1,-6,0,-6
O=C1NCCN1C(=O)c1ccco1,1.3%,0,5%,-4.6,-14,0,8
COc1ccc(Oc2nc(C)cc(C)c2S(C)(=O)=O)cc1,1.0%,2,25%,-3.7,0,-2,0
CCOCCCNC(=S)NCCCNc1nc2cc3c(cc2cc1C#N)OCO3,1.4%[38.3 µM],9,-9%,-0.9,-1,5,0
COC(=O)c1cc(NC(=O)c2cc(C(C)(C)C)nn2Cc2ccc(F)cc2)ccc1N1CCOCC1,0.4%,.,29%,8.9,-13,-62,15

The list continues.
molecule,PINK1 modulator,CtBP-E1A inh,Sfp PPTase inh,D2 ag,D2 PAM,TRPV1 potentiator,Six1-Eya2 blk
CCn1c(COc2cccc(C)c2C)nnc1SCC(=O)N1CCN(c2ccc(OC)cc2)CC1,-5.0%,3,-9%,2.4,9,4,-3
Cc1cccn2c(=O)c3cc(C(=O)N4CCCCC4C)sc3nc12 (stereo not given),2.0%,-2,.,-2.3,1,-20,2
O=C(CCl)Nc1cc(S(=O)(=O)N2CCOCC2)ccc1N1CCOCC1,-1.0%,8,16%,0.9,-3,1,2
Cc1cccc(-c2n[nH]c(=S)n2C)c1,-0.2%,-7,12%,-7.2,-38,3,-5
Cc1cccc(NC(=O)CCC(=O)N/N=C/c2ccncc2)c1,-1.4%,26,?,-1.6,-15,2,16
Cc1cc(C)n2c(SCC(=O)N(C)C3CCS(=O)(=O)C3)nnc2n1 (stereo not given),2.6%,-1,-8%,-1.6,-23,5,2
C/C(=N\NC(=O)c1cc(O)ccc1O)c1cccc(NC(=O)c2ccc(Cl)cc2)c1,?,-27,-7%,?,23,-6,?
O=S(=O)(Nc1ccc2c(c1)OCCO2)c1ccc(Br)s1,-0.7%[38.3 µM],0,12%,-1.0,-10,-1,3
CC(Oc1ccc(Cl)cc1Cl)C(=O)Nc1ccc(S(=O)(=O)Nc2cnc3ccccc3n2)cc1 (stereo not given),0.8%,5,-8%,-0.4,6,8,-14

High-throughput results: PubChem BioAssay, National Center for Advancing Translational Sciences (NCATS)
